# Assay outcomes deposited in PubChem by National Center for Advancing Translational Sciences (NCATS).
# hNpr1 antagonist = blocks ANP-stimulated signaling of human Npr1 receptor; P16066; HEK293 hNpr1 GloSensor cGMP, ANP-stimulated luminescence; Potency, µM (highest dose often 46.3 µM), for inactives: at the top dose activity change, negative = inhibition, usual class: inhibitors; 1.6% of 76,000 active; AID 1347048; active = well fitted inhibition curve with a large enough effect; inconclusive = small, poorly fitted or top-dose-only effect; inactive = no such curve, though single readings can be large or run the other way;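 note: nearly all actives have a fitted effect of over 60% in size; nearly all hits also lower the signal before the agonist is added; a reference antagonist and vehicle were the controls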
# Target sequence (P16066 whole entry, looked up): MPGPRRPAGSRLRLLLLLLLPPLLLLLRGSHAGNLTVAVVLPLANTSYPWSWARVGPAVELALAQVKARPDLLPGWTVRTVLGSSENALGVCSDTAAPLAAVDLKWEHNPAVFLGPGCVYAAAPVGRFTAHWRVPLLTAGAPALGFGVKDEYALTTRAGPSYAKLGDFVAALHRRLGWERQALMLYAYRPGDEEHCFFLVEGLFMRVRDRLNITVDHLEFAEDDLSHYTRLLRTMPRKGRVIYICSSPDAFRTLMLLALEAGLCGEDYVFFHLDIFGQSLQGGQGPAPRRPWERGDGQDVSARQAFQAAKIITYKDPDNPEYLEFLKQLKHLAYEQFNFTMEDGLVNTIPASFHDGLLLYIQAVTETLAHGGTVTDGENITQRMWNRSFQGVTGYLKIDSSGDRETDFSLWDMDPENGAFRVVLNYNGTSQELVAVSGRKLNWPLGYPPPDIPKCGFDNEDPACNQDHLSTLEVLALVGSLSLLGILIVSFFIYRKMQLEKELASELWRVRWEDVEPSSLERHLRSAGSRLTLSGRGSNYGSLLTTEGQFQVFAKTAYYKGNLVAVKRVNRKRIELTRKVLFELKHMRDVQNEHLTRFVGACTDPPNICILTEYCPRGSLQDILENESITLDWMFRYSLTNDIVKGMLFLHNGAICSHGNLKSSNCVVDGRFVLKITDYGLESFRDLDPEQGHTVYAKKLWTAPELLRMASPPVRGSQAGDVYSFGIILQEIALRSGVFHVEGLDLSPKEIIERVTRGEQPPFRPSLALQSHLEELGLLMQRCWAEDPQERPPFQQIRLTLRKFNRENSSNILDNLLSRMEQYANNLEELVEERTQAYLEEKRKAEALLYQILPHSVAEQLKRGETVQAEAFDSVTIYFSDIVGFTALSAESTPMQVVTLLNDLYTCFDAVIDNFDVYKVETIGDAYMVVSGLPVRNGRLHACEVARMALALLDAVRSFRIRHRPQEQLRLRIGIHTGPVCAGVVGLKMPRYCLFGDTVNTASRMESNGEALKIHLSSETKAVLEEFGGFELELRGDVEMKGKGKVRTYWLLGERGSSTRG
#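 Compound pre-incubated 30 min at room temperature on GloSensor-loaded HEK293 cells stably carrying hNpr1 and the pGS-40F cGMP biosensor. Stimulation uses hNppA at 0.1 nM final; luminescence is taken at baseline and 20 min post-agonist.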
# Active calls of the source: *; ? = inconclusive; [ ] = dose if it differs, or a comment. % is set by controls: 0 for no effect and ±100 for the full control effect; potency is the fitted concentration of half-maximal effect. These rows are one share of the data; the hit share may differ from the screen's.
hNpr1 antagonist | SMILES
0% | CN(Cc1nc2ccccc2n1C)C(=O)C1CC2(CCNCC2)CN1C (centres undefined)
0% | CCc1cccc(OCC(=O)c2ccc3c(c2)N(CC(=O)NCCc2ccccc2)C(=O)CO3)c1
-8% | OC[C@@H]1CN(CCCc2ccccc2)C[C@H]1c1nc(C2CC2)no1
1% | CC1=C[C@@H](CN2CCN(CCO)CC2)[C@H](C(C)C)C[C@H]1Cc1nnc(-c2ccccc2F)o1
1%[70.6 µM] | CN1CCC(Cn2ccc3c(N4CCOCC4)nc(-c4cccc(C(N)=O)c4)cc32)CC1
-6% | CCOc1ccc(C(=O)N2CCC(c3n[nH]c(=O)n3Cc3ccc(OC)cc3)CC2)cc1
-1% | COCc1noc([C@@H]2CN(Cc3ccc4c(c3)CCO4)C[C@H]2C(N)=O)n1
-12% | COCCN1C(=O)c2ccccc2C(C(=O)NCc2ccccc2)C12CCCCC2 (centres undefined)
2%[70.6 µM] | Cn1cccc1C(=O)N[C@H]1C[C@H]2C(=O)Nc3cc(Cl)ccc3C(=O)N2C1
1% | NCCn1cc(C(=O)N2CCN(CCCOc3ccc(F)cc3)CC2)nn1
1% | COc1ccc(-c2ccccc2NC(=O)C2CCCN2C(=O)c2cccnc2)cc1 (centres undefined)
4% | COCCC1(N(C)C)CCN(C(=O)Cc2ccccc2)CC1
4% | CC1(C)CC(CN2CCC3(CC2)CC(=O)N(Cc2ccccc2)C3)CCO1 (centres undefined)
2%[70.6 µM] | COCc1nc2nc(-c3ccccc3)c(-c3cccc(CO)c3)cc2n1C
-15% | Cc1cccc(C(=O)NC2CCN(c3cc(-c4ccc(Cl)cc4)[nH]n3)C2)c1 (centres undefined)
-9% | CCCOCCNC(=O)c1c(C)noc1-c1ccc(OC)cc1
-11% | C=CCNC(=O)CCc1c(C)nn(-c2ccc(F)cc2)c1Oc1ccccc1F
3% | CC(=O)N1CCCC1c1nc(C2CN(S(=O)(=O)c3cccc(C)c3)C2)no1 (centres undefined)
-4% | COc1ccccc1CN1CC(CNC(=O)c2ccccc2)C2(C1)CN(c1ccccc1)C2 (centres undefined)
1%[70.6 µM] | CN(C)c1ccc(-c2nnc([C@H]3CCN(C4CCC4)C3)o2)cc1
10% | COCC(=O)Nc1nc2c(s1)C[C@@H]1[C@](C)(CO)[C@H](O)CC[C@@]1(C)[C@@H]2CC(=O)N1CCOCC1
13% | CCn1nc(C)c(-c2cc(C(=O)NCC34CCC=C3N(C)C(=O)CC4)no2)c1C (centres undefined)
0% | CN(Cc1cccnc1)C(=O)[C@H]1C[C@@H](C(=O)O)N(C)[C@H]1c1cccc(Cl)c1
-11% | CCn1ncc(N2CCC(NC(=O)Cc3ccc(F)cc3)CC2)cc1=O
-2%[70.6 µM] | O=C(N[C@@H](Cn1ccc(=O)[nH]c1=O)C(=O)O)C1CCCCC1
-6%[70.6 µM] | CC(C)(C)CC(=O)N1C[C@@H]2C[C@H]1C(=O)N(CC1CC1)c1ccccc1O2
6% | CCC(=O)N1CCC2(CCC2OC)CC1 (centres undefined)
6% | CC(=O)c1cccc(NC(=O)Cn2ccn3nc(-c4ccc(F)cc4)c(CO)c3c2=O)c1
1% | O=C(CCc1ccccc1)N1CCC2(CC1)NC(=O)N(c1cccc(F)c1)N2
8% | Cc1ccc(C(=O)N2CCc3sc(C(=O)NCCN4CCCCCC4)cc3C2)cc1
-2% | c1csc(-c2ccnc3nc(C4CCC4)nn23)c1
7% | COC(=O)C1=CN(CC(=O)NCc2cccc(OC)c2)S(=O)(=O)N=C1C
0% | O=C(c1ccc2c(c1)OCO2)N1CCC2(CCCN(CCCc3ccccc3)C2)C1 (centres undefined)
0%[70.6 µM] | COc1ccc(-c2cc(C[C@H]3CNCC[C@H]3CC(=O)O)no2)cc1
-4% | COc1ccc(C2(C(=O)N3CCCCCCNC(=O)CC3)CC2)cc1
-5%[70.6 µM] | O[C@@H]1C[C@@H](c2nc(-c3ccc4c(c3)OCO4)no2)N(Cc2ccccc2)C1
0% | O=C1CC(c2ccccc2)N(C(=O)CNC(=O)Nc2ccccc2)CCCCCN1 (centres undefined)
7% | O=C(CC1=CCCCC1)N[C@@H]1CN(c2ncccn2)C[C@H]1CO
1% | O=C(NCc1noc(Cc2cccs2)n1)[C@H]1CCC[C@@H](O)C1
-1% | CCOc1cc(=O)n2c(c1C(=O)Nc1cc(OC)c(OC)c(OC)c1)CCCC2
-11% | COc1cc(NC(=O)CCn2ccn3nc4c(c3c2=O)CCCC4)cc(OC)c1
-4% | CCc1cccc(OCC(=O)c2ccc3c(c2)N(CC(=O)NCCCOC)C(=O)CO3)c1
1% | CSc1ccc(-c2ccc3c(c2)C(=O)N2CC[C@H](NC(=O)C4CCNCC4)C[C@H]2C(=O)N3)cc1
1% | NCCCC(=O)N1CCCC(N2CCN(c3cccc(C(F)(F)F)c3)CC2)C1 (centres undefined)
-6%[70.6 µM] | CC1=C[C@@H](CNC(=O)CCC(=O)O)[C@H](C(C)C)C[C@H]1Cc1nc2ccccc2n1C
-2% | O=c1cc(CN2CCCn3nc(CO)cc3C2)nc2sc(C3CC3)nn12
1% | CCOCCCNC(=O)c1cc2c(=O)[nH]c(-c3ccccc3)cn2n1
4%[70.6 µM] | O=c1n(-c2ccncc2)nc2n1CCN(CC1CC1)C2
-15%[70.6 µM] | COc1ccc(-c2noc([C@@H]3Cc4nc[nH]c4CN3C(=O)NC3CCCCC3)n2)cc1
2%[70.6 µM] | CCN(CC)C(=O)[C@@H](C)C1CC[C@@]2(C)CC[C@H](NC(=O)c3ccncc3)[C@@H](C)[C@@H]2[C@H]1O (some centres undefined)

# Carrying on.
hNpr1 antagonist | SMILES
-3% | CCc1sc(NC(=O)Cn2nc3c(cc2=O)CCCC3)nc1C(=O)OC
2%[70.6 µM] | N#Cc1ccc2nc([C@H]3CCN(Cc4ccccc4)C3)[nH]c2c1
0% | Cc1ccc(-c2ccc3nnc(CNC(=O)c4cccc(C(F)(F)F)c4)n3n2)cc1
0% | O=C(NC1CCCCCCC1)C1CCCN(C2CCN(Cc3ccncc3)CC2)C1 (centres undefined)
0% | O=C(CC1CCOC2(CCN(Cc3cccs3)CC2)C1)N1CCOCC1 (centres undefined)
0% | C[C@]1(CO)C2CC[C@@H](O)[C@@H](CC(=O)N3CC[C@@H](O)C3)[C@]2(C)CC[C@H]1OC(=O)Nc1ccc(Cl)c(Cl)c1 (some centres undefined)
-6% | CC1CCC2(CC1)NC(=O)N(CC(=O)N(C)C1CCCCC1)C2=O (centres undefined)
-30% | COc1ccc(CN2C(=O)O[C@@H]3CN(c4ccnc(SC)n4)C[C@@H]32)cc1OC
-23% | O=C(NCc1ccc(F)cc1F)c1cc2n(n1)CC(c1ccc3c(c1)OCO3)OC2 (centres undefined)
6%[70.6 µM] | O=C(NC1CCCCC1)N[C@H]1[C@H](O)[C@@H](N2CCN(c3ccccc3)CC2)[C@@H]2OC[C@H]1O2
6% | CS(=O)(=O)N1CCOc2ccc(CCC(=O)NCCc3ccccc3)cc2C1
-1% | COc1ccc(CN2CCC[C@H]2c2nc(-c3ccc(-n4ccnc4)nc3)no2)c(OC)c1OC
-2%[70.6 µM] | CS(=O)(=O)c1ccc(-c2cnc([C@@H]3COCCN3Cc3ccncc3)[nH]2)cc1
0%[70.6 µM] | CC1(c2ccccc2)N(Cc2cccnc2)C(=O)OC12CCN(C(=O)C1CCC1)CC2 (centres undefined)
-8% | O=C1CN(Cc2ccc(-c3ccccc3)cc2)CCN1c1cc(Cl)ncn1
? | COc1cccc(-c2noc(-c3ccc(NCCCSC)nc3)n2)c1OC
-2% | CCCN1CCCC2(CCN(c3cc(C)c4cccc(OC)c4n3)C2)C1=O (centres undefined)
4% | CN(C)C[C@@H]1CN(Cc2ccncc2)C[C@H]1NC(=O)C1CC=CC1
3%[70.6 µM] | COCCN1C(=O)CO[C@H]2CN(C3CCN(C(C)=O)CC3)C[C@H]21
0% | COCCOC1CCN(C(=O)CCc2c[nH]c3ccccc23)CC1
1%[70.6 µM] | CCNC(=O)N1CC[C@H]2CC(=O)N([C@H](C(N)=O)C(C)C)CC[C@H]2C1
1% | CC(=O)N1CCN(Cc2ccc(C(F)(F)F)c(F)c2)CC(O)C1 (centres undefined)
-13%[70.6 µM] | COc1ccc(CN2CC[C@H](c3nnc(-c4ccccc4F)o3)C2)cc1
8%[70.6 µM] | O=C1Cc2c(-c3cccc(CO)c3)n[nH]c2CN1c1ccccc1
2% | O=C(Cc1ccc(-n2cnnn2)cc1)N1CCC2(CC1)[C@H](O)C[C@@H]2O

# Fetched by compound from the entries so far (2):
hNpr1 antagonist | SMILES
? | COc1cccc(-c2noc(-c3ccc(NCCCSC)nc3)n2)c1OC
2%[70.6 µM] | Cn1cccc1C(=O)N[C@H]1C[C@H]2C(=O)Nc3cc(Cl)ccc3C(=O)N2C1

# (continued)
hNpr1 antagonist | SMILES
-2%[70.6 µM] | COc1ccc(-c2[nH]nc3ncc(-c4ccccc4O)nc23)cc1F
-7% | Fc1cccc(Cc2nc(-c3nnn4c3COC(c3ccc(Cl)cc3)C4)no2)c1 (centres undefined)
? | COc1ccc(NC(=O)CCC2CCCN(C(=O)CC3=CCCCC3)C2)cc1Cl (centres undefined)
-7% | Cc1nc(-c2ccccc2)n(Cc2ccccc2Cl)c(=O)c1CCO
-19%[70.6 µM] | COc1ccc(-c2cc(C[C@H]3CNCC[C@H]3CC(=O)NCc3ccccc3)no2)cc1
-12%[70.6 µM] | CCCc1nnc(C[C@@H]2C[C@@H](C(C)C)[C@H](CNCc3cccnc3)C=C2C)o1
-17%[70.6 µM] | COc1ccc(-c2nc3ncccc3[nH]2)cc1
5% | CC(=O)Nc1ccccc1NC(=O)CN1CCN(Cc2ncccc2C)CC1
7%[70.6 µM] | COc1ccc(OC)c(CN2CCC3(CC2)OCCN(Cc2ccccc2)C3=O)c1
5%[70.6 µM] | O=C(O)CCC(=O)N1C[C@@H]2OCC(=O)N(Cc3ccc(F)cc3)[C@@H]2C1
2% | CN1CCN(c2ccc3nnc(-c4cc(C(=O)N(C)Cc5ccccc5)ccn4)n3n2)CC1
0%[70.6 µM] | O[C@H]1CC[C@@H](Cc2cc(CN3CCOCC3)on2)O[C@@H]1CNCc1ccccc1
3% | C=CCn1nc(C(=O)N2CCOCC2)c2c1CCC(NCC1(c3ccccc3)CCOCC1)C2 (centres undefined)
-28% | CCOc1ccccc1C1NC(=O)N(CC(=O)Nc2ccc(OC)c(Cl)c2)C2=C1C(=O)OC2 (centres undefined)
4% | CC1(C(=O)NCCc2ccccc2)CCCCC(=O)N1 (centres undefined)
1%[70.6 µM] | CCOCCN1C(=O)COC[C@@H]1[C@H](O)c1ccc(NC(=O)COC)cc1
-15% | CN1C(=O)C2(CCN(C(=O)c3cccc(Br)c3)C2)c2ccccc21 (centres undefined)
2%[70.6 µM] | Cc1noc2c(-c3cccnc3N3CC(O)C3)cc(-c3ccccc3)nc12
2% | O=C1NCCCCCN(C(=O)c2cccs2)[C@H]2CCCC[C@@H]12
1% | Cc1cccc(C(=O)N2CCC3(CC2)OCC(C(=O)N2CCOCC2)N3C(=O)c2ccc(F)cc2)c1 (centres undefined)
3% | CCn1nc(C)cc1C(=O)N1C[C@@H](CN2CCN(C)CC2)[C@@H](CO)C1
-2% | Cc1cc(C)cc(NC(=O)N(C)CC2CCOCC2)c1
0%[70.6 µM] | COc1cccc(-c2cnc([C@@H]3COCCN3C3CCOCC3)[nH]2)c1
-10% | Cc1noc([C@@H]2CN(Cc3ccc(OC(C)C)cc3)C[C@H]2CO)n1
-6% | CNC(=O)[C@H]1C[C@H](Oc2ccccc2)CN1C(=O)Nc1ccc(OC)cc1
-12% | Cc1ccsc1C(=O)NC1CCN(c2cnn(CC3CC3)c(=O)c2)CC1
-1% | CC(C)N1CCN(C(=O)CN2CC3CC(C2)[C@H]2CCCC(=O)N2C3)CC1 (some centres undefined)
-14% | Cc1ccc(C)c(OCC(=O)c2ccc3c(c2)N(CCCC(=O)NC2CCCCC2)C(=O)CO3)c1
-21%[70.6 µM] | O=C1N(c2ccccc2)C[C@H]2CN(Cc3ccccc3)CCN12
14%[70.6 µM] | COc1ccc(CNC(=O)c2c[nH]c3ncccc23)cc1OC
-18%[70.6 µM] | CN1C[C@@H](NC(=O)c2cnccn2)C[C@H]1c1nc(-c2ccc(OC(F)(F)F)cc2)no1
0%[70.6 µM] | O=C(c1ccc2c(c1)OCO2)N1CCN2C(=O)NC[C@H]2C1
1% | CN1CC(=O)N2CCN(S(=O)(=O)c3ccc(F)cc3F)CC2C1=O (centres undefined)
-2% | Cn1cnc2cc(C(=O)N3CCNCC(C(=O)O)C3)ccc21 (centres undefined)
-9% | O=C1CCN(S(=O)(=O)c2ccccc2)CCCN(C(=O)C2CCC2)CCN1
0%[70.6 µM] | O=C(c1cnccn1)N1CCOC[C@H](Oc2cccnc2)C1
5% | c1ccc(CN2CCCCC2c2nc(CCOCC3CCCC3)no2)nc1 (centres undefined)
-4%[70.6 µM] | O=C(CCc1ccccc1)N1CCC2OCCN(Cc3ccccc3F)C(=O)C2C1 (centres undefined)

# Of the compounds above, these have a thiophene ring, fused or not.
hNpr1 antagonist | SMILES
8% | Cc1ccc(C(=O)N2CCc3sc(C(=O)NCCN4CCCCCC4)cc3C2)cc1
-2% | c1csc(-c2ccnc3nc(C4CCC4)nn23)c1
1% | O=C(NCc1noc(Cc2cccs2)n1)[C@H]1CCC[C@@H](O)C1
0% | O=C(CC1CCOC2(CCN(Cc3cccs3)CC2)C1)N1CCOCC1 (centres undefined)
2% | O=C1NCCCCCN(C(=O)c2cccs2)[C@H]2CCCC[C@@H]12
-12% | Cc1ccsc1C(=O)NC1CCN(c2cnn(CC3CC3)c(=O)c2)CC1
